Screens: PubChem, National Center for Advancing Translational Sciences (NCATS)
2A firefly = FMDV 2A StopGo reporter, firefly signal | HEK cells with a luciferase reporter of 2A StopGo recoding | Potency, µM (doses to about 57.5 µM), for the others: top-dose signal change, negative = less light | hit rate 0.23% among 120,000; active = well fitted falling curve with a large enough effect; inconclusive = small, poorly fitted or top-dose-only effect; inactive = no such curve, though single readings can be large or run the other way; note: nearly all actives have a fitted effect of over 60% in size; overnight with compound
StopGo RLuc = lowers the Renilla signal of an FMDV 2A StopGo reporter; HEK cells with a luciferase reporter of 2A StopGo recoding; Potency, µM (doses to about 57.5 µM), without a hit: at the highest dose signal change, negative = less light; hit rate 0.32% among 120,000; AID 1745857; active means well fitted falling curve with a large enough effect; inconclusive means small, poorly fitted or top-dose-only effect; inactive means no such curve, though single readings can be large or run the other way; note: nearly all actives have a fitted effect of over 55% in size; overnight with compound
* marks the source's active call; other numbers are inactive results; ? = inconclusive; & = joins results of further samples; [ ] = another dose, or the depositor's remark. % is set by controls: 0 for no effect and ±100 for the full control effect; potency is the fitted concentration of half-maximal effect.

SMILES	2A firefly	StopGo RLuc
Cc1cccc(N2CCN(S(=O)(=O)c3cc(Br)cc4c3N(C(=O)C3CC3)CC4)CC2C)c1 (stereo not given)	2%	39%[activator]
CC(C)C(=O)Nc1ccc(Br)cc1Br	31%[activator]	17%
Cc1ccccc1NC(=O)CSc1nc(-c2ccco2)ccc1C#N	2%	-1%
Cn1nc(C(=O)N2CCN(c3ccc(Cl)cc3)CC2)c2c1-c1ccccc1S(=O)(=O)C2	?	?
Cc1cc2ccccn2c1/C(=N/S(=O)(=O)c1cccs1)c1ccccc1	?	175%[activator]
CCC(CC)NC(=O)/C=C/c1ccc(OC)cc1	102%[activator]	-9%[1.06 µM]
Cc1ccc(OCCN(C)C(=O)c2cnc3ccccc3n2)cc1	66%[activator]	12%
O=S1(=O)C=CC(N(Cc2ccccc2)Cc2ccccc2F)C1 (stereo not given)	-7%	-1%
Oc1c(Cl)cccc1C=Nc1cc(C(F)(F)F)ccc1Oc1ccccc1Cc1ccccc1	-2%	-25%
COc1ccccc1-n1ccnc1SCC(=O)Nc1nc(C)cs1	55%[activator]	12%
CCOc1ccc(NC(=O)Cn2cc(C(=O)c3ccc(CC)cc3)c(=O)c3cc(OC)c(OC)cc32)cc1	-14%	-6%
O=C(CCc1ncc(-c2c(F)cccc2F)o1)N1CCC(OCc2ccccc2)CC1	0%	3%
Cc1cc(=O)oc2cc(OCC(=O)N3CCC(O)CC3)c(Cl)cc12	-2%	-8%
O=C(c1ccc(-c2ccccc2)cc1)N1CCN(CC2CC=CCC2)CC1 (stereo not given)	11%	13%
CCCN(C(=O)c1cc2c(=O)oc3ccccc3c2s1)c1cccc(Cl)c1	-2%	-5%
CCCN(CC(N)=O)Cc1ccc(C#N)cc1	-4%	-6%
Cc1nn(C)c(C)c1CC(=O)Nc1nc(C(C)C)cs1	?	?
COc1ccc2cc3cc(C(=O)Nc4ccccc4C)oc3nc2c1	89%[activator]	-6%
CC(C)c1ccc(CNC(=O)Nc2ccccc2Cl)cc1	59%[activator]	13%
CC(O)CNCCCOc1ccc(C(C)(C)c2ccccc2)cc1 (stereo not given)	-8%	-8%
CC(CC(=O)O)(C(=O)O)c1ccccc1 (stereo not given)	-11%	1%
O=C(NCc1ccccc1)C(=O)NCC(c1ccco1)S(=O)(=O)c1ccccc1 (stereo not given)	-24%	-3%
NC(N)=NS(=O)(=O)c1ccccc1	9%	8%
CC(C)CCn1c(SCc2ccc(F)cc2)nc2c1c(=O)[nH]c(=O)n2C	16%	8%
Cc1ccc(C)c(CN2C(=O)c3ccccc3Sc3ccc(C(=O)N4CCC5(CC4)OCCO5)cc32)c1	-25%	8%
CCC(CC)NC(=O)C(=O)O	11%	2%
CNc1c(NC(=O)c2ccc(OC)c(Br)c2)c(=O)oc2ccccc12	37%[activator]	-3%
C=C(Cl)CN1CCN(CCc2ccccc2)CC1	26%	8%
Cc1cc(=O)c2c(O)c3c(O)cc(=O)c4c3c3c(cc(O)c1c23)C(C)(C)C=4O	?	-13%[23.8 µM]
COCC(C)NS(=O)(=O)c1cc(C)ccc1C (stereo not given)	-7%	172%[activator]
COc1ccccc1/C=C/c1nc(C#N)c(NCCCN(C)C)o1	10%	-6%
COc1ccc(OCC(=O)Nc2c(C(=O)N3CCN(c4ccccc4)CC3)oc3ccccc23)cc1	-5%	38%[activator]
O=C(COc1ccc(F)cc1)NCCc1c[nH]c2ccccc12	58%[activator]	24%
COc1ccc(OC)c(-c2cc(C(=O)Nc3ccc(C)c(C)c3)no2)c1	16%	-7%
O=C(CSc1nnc(-c2ccc([N+](=O)[O-])cc2)o1)Nc1ccccc1	188%[activator]	-4%
CCN(CC)CC(C)CNC(=O)CN1C(=O)CSc2ccc(S(=O)(=O)N3CCOCC3)cc21 (stereo not given)	-10%	-7%
COC(=O)c1c(SC)nc2ccccc2c1OCc1cccc(C)c1	-15%	7%
Cc1ccc(S(=O)(=O)N2CCN(C(=O)Cc3c(C)nn(C)c3C)CC2)cc1	-3%	-11%
Cc1ccc(-c2csc(=S)n2CC(=O)O)cc1	11%	13%
O=C(NCc1ccccc1)C(=O)Nc1cccc2[nH]ccc12	18%	85%[activator]

Quoted at random: three records from the list, in no set order.
SMILES	2A firefly	StopGo RLuc
CC(C)CCn1c(SCc2ccc(F)cc2)nc2c1c(=O)[nH]c(=O)n2C	16%	8%
Cc1ccc(S(=O)(=O)N2CCN(C(=O)Cc3c(C)nn(C)c3C)CC2)cc1	-3%	-11%
COc1ccc(OCC(=O)Nc2c(C(=O)N3CCN(c4ccccc4)CC3)oc3ccccc23)cc1	-5%	38%[activator]

(listing goes on)
SMILES	2A firefly	StopGo RLuc
Cc1cc(=O)oc2cc(OC(=O)CCCOc3ccccc3)ccc12	5%	-4%
O=C(NCc1ccccc1Cl)c1cc(=O)[nH]c2ccc(S(=O)(=O)N3CCCCC3)cc12	-11%	2%
CC(C)Oc1ccc(C(=O)Nc2ccc3oc(-c4ccncc4)nc3c2)cc1	0%&-8%	3%&-17%
CCCc1nn2c(=O)cc(COC(=O)c3ccc(NC(=O)C(C)Oc4ccccc4)cc3)nc2s1 (stereo not given)	-1%&0%	-3%&-1%
COc1ccc(CCNC(=O)Cc2c(C)c3c(cc(C)c4c(C)coc43)oc2=O)cc1	-11%	-2%
O=C(Cc1c[nH]c2ccccc12)NC1CCCNC1=O (stereo not given)	2%	-4%
CCn1c(COc2ccc(OC)cc2)nnc1SC(C)C(=O)Nc1ccc2c(c1)OCO2 (stereo not given)	-6%	80%[activator]
COc1ccc2c(c1)CC(C(=O)NCCN1CCN(c3cccc(C)c3C)CC1)CO2 (stereo not given)	-10%	3%
COc1cccc(NS(=O)(=O)c2ccc3[nH]cc(C(=O)NC(C)c4ccccc4)c(=O)c3c2)c1 (stereo not given)	-20%	128%[activator]
Cc1c(CCC(=O)NCc2nc(-c3ccccc3)no2)c(=O)oc2cc(O)ccc12	-3%	-4%
CC(NC(=O)CNC(=O)c1ccc(N2CCCC2=O)cc1)c1ccc(Cl)c(Cl)c1 (stereo not given)	13%	8%
COc1cc(Cl)c(C)cc1NS(=O)(=O)c1cc(-c2n[nH]c(=O)c3c2CCCC3)ccc1C	24%	116%[activator]
COc1ccc2nc(SCC(=O)Nc3ccccc3C(=O)Nc3ccc4c(c3)OCO4)[nH]c2c1	126%[activator]	55%[activator]
CCOC(=O)CNC(=O)NCc1cccn1Cc1cccc(C)c1	14%	2%
Cc1c(C(=O)Cn2c(C)nc3ccccc32)c2ccccc2n1C	6%	3%
COC(=O)Nc1nc2ccc(C(=O)c3cccs3)cc2[nH]1	86%[activator]	33%[activator]
Cc1nnc(SCC(=O)c2c[nH]c(C(=O)N3CCCC3)c2)n1C1CC1	0%	48%[activator]
CCC(=O)Nc1cc(C)c(O)c(-c2nc3ncccc3o2)c1	-3%	6%
COc1ccc(NC(=O)CSc2nc3c(cnn3-c3ccccc3)c(=O)[nH]2)c(OC)c1	6%	-6%
CC(=O)Nc1ccc(NC(=O)COC(=O)c2oc3ccccc3c2C)cc1	11%	-5%
O=C(NCc1ccco1)C1c2ccccc2C(=O)N(C2CCCC2)C12CCCC2 (stereo not given)	14%	53%[activator]
COc1ccc(-c2nn(C)c(-c3ccc(OC)cc3)c2-c2nc3ccccc3n2C)cc1	?	-26%
COc1ccc(OC)c(NC(=O)c2cc3cc4ccc(C)cc4nc3s2)c1	-16%	-7%
OCCNC(=S)NC12CC3CC(CC(C3)C1)C2	21%	18%
CN(C(=O)CSc1ccc2c(c1)OCCCO2)c1ccccc1	158%[activator]	15%
Cn1c(NCc2ccccc2Cl)nc2c1c(=O)n(Cc1ccc(Cl)cc1)c(=O)n2C	-5%	-10%
Cc1sc2nc(C(C)Sc3nnnn3C(C)(C)C)[nH]c(=O)c2c1C (stereo not given)	0%	-3%
CC(C)c1cnc2c(c1SCc1ccc([N+](=O)[O-])cc1)c(=O)n(C)c(=O)n2C	-8%	80%[activator]
CCOC(=O)c1cnc2ccc(OC)cc2c1Nc1ccccc1OC	-18%	-24%
Cc1cc(CS(=O)(=O)Cc2ccc(Cl)cc2)on1	2%	1%
O=C(c1ccc2c(c1)N(Cc1ccccc1F)C(=O)c1ccccc1S2(=O)=O)N1CCOCC1	8%	58%[activator]
CCCCc1nc(NCCOCCO)c(C#N)c2c1CCCC2	-17%	-10%
CCC(=O)Nc1ccc2oc(-c3cccnc3)nc2c1	63%[activator]	16%
O=C(Nc1ccccc1Cl)C1CCN(c2ncnc3onc(-c4ccc(F)cc4)c23)CC1	-6%	0%
CCOCCCNC(=O)c1ccc2c(=O)n(CCc3ccc(OC)c(OC)c3)c(=O)[nH]c2c1	20%	24%
Cc1c(-c2ccccc2)[n+](=O)c(-c2ccc(Br)cc2)c(C)n1[O-]	8%	-2%[1.06 µM]
Cc1ccc2oc(C(=O)Nc3nnc(SCc4ccccc4)s3)cc(=O)c2c1	2%	-10%
N#Cc1cccc(NC(=O)c2n[nH]c(=O)c3ccccc23)c1	67%[activator]	5%
O=C(CN1C(=O)C2CCCCN2c2ccc(C(=O)N3CCCC3)cc21)NCc1cccc(Cl)c1 (stereo not given)	23%	94%[activator]
CCCCn1nc(C(=O)N2CCCC(c3nc4ccccc4s3)C2)c2ccccc2c1=O (stereo not given)	34%[activator]	10%
O=C(c1ccc(-n2cccc2)cc1)N1CCN(S(=O)(=O)c2c(Cl)cccc2Cl)CC1	-10%	-1%
CC1CCN(c2ccc(-c3ccc(NS(=O)(=O)c4ccc(Cl)s4)cc3)nn2)CC1	153%[activator]	79%[activator]
CCOc1cc2nc(-c3ccc(OC)c(OC)c3)nc(N3CCCCC3)c2cc1OC	-9%	-2%
O=C(c1ccc(F)c(F)c1)N1CCC(CN2CCOCC2)CC1	2%	-7%
COc1ccc(N2CCN(S(=O)(=O)CCNC(=O)C3CC(=O)N(c4ccccc4)C3)CC2)cc1 (stereo not given)	-13%	-6%
Cc1ccc(NC(=O)Cn2cc(C(=O)c3cccs3)c3ccccc32)cc1C	2%	9%
O=C(c1ccc(C2SCCS2)cc1)N1CCN(Cc2ccc(Cl)cc2)CC1	?	?
O=C(C1COc2ccccc2O1)N1CCN(c2nc3c(F)cccc3s2)CC1 (stereo not given)	?	?
Cc1noc(Cn2cnc3c(Cl)cc(Cl)cc3c2=O)n1	-3%	-8%
CC1=C/C(=N/NC(=O)c2cc(C)oc2C)CC1	0%	18%
Cc1ccc(NC(=O)CSc2ccc(-c3ccccn3)nn2)cc1F	80%[activator]	-8%
CCOc1ccc2nc(N3CCCC(C(=O)NCCc4ccc(SC)cc4)C3)sc2c1 (stereo not given)	0%	-25%
C=C(C)Cn1c(=O)c2c(nc3n2CCN3c2cc(C)cc(C)c2)n(C)c1=O	-17%	-15%
CCOC(=O)c1c(NC(=O)/C=C/c2ccc(C)cc2)sc2c1CCCC2	-17%	-10%
CCc1ccc(C2CC(=O)c3c([nH]c(C(=O)OCc4ccc(C)cc4)c3C)C2)cc1 (stereo not given)	19%	8%
O=C(Nc1ccc(-c2ccccc2)cc1)c1ccccc1C(F)(F)F	79%[activator]	47%[activator]
O=C(Cn1nc(-c2ccccc2)c2ccccc2c1=O)Nc1ccc(O)cc1	3%	-3%
CC(=O)Nc1ccc(Nc2nc3c(S(=O)(=O)c4cccc(Cl)c4)nnn3c3ccsc23)cc1	-10%	3%
O=C(Nc1ccccc1)NC1CCSc2ccccc21 (stereo not given)	22%	0%
Cc1[nH]c2ccccc2c1C=C(C#N)C#N	6%	15%

Gathered by group: the entries above with a nitro group on carbon.
SMILES	2A firefly	StopGo RLuc
O=C(CSc1nnc(-c2ccc([N+](=O)[O-])cc2)o1)Nc1ccccc1	188%[activator]	-4%
CC(C)c1cnc2c(c1SCc1ccc([N+](=O)[O-])cc1)c(=O)n(C)c(=O)n2C	-8%	80%[activator]

More entries follow.
SMILES	2A firefly	StopGo RLuc
O=C(Nc1ccc(N2CCOCC2)cc1)c1nc2ccccc2nc1N1CCOCC1	-4%	-2%
CN1CCN(c2nc3nnnn3c3sc4c(c23)CCN(Cc2ccccc2)C4)CC1	-4%	-10%
COc1ccc(S(=O)(=O)n2nc(C)c(S(=O)(=O)N3CCC(C)CC3)c2C)cc1OC	-6%	0%
CCOC(=O)C1CCC(CNC(=O)N2CCCC2c2cccc(C)c2)CC1 (stereo not given)	13%	16%
Cc1ccc(CNC(=O)CCCCn2c(=O)c3ccccc3n(Cc3ccc(Cl)cc3)c2=O)cc1	-16%	-5%
O=C(NCc1ccccn1)c1ccc(F)cc1	53%[activator]	-2%
Cc1csc(NC(=O)CCc2ncc(-c3ccc(Cl)cc3)o2)n1	0%	1%
COc1ccc(NC(=O)Cn2cnc3sc(C)c(S(=O)(=O)N4CCN(C)CC4)c3c2=O)cc1OC	-3%	-8%
O=C(CSCc1ccncc1)N(Cc1ccsc1)C1CC1	-10%	-20%
CC(C)c1ccc(NC(=O)Cn2cc(S(=O)(=O)Cc3cccc(Cl)c3)c3ccccc32)cc1	-16%	-6%
Cc1ccc(CNC(=O)C2CCCN(c3nn4cc(-c5ccc(C)cc5)nc4s3)C2)cc1 (stereo not given)	30%	-16%
O=C(NCCCN1CCCCC1)c1[nH]c2ccccc2c1Sc1ccc(Cl)cc1	-20%	-11%
COc1cccc(-c2ccc3c(N)c(C(=O)Nc4ccc(C)c(F)c4)sc3n2)c1	2%	-5%

Compounds from the list above that have a CF3 group (2):
SMILES	2A firefly	StopGo RLuc
Oc1c(Cl)cccc1C=Nc1cc(C(F)(F)F)ccc1Oc1ccccc1Cc1ccccc1	-2%	-25%
O=C(Nc1ccc(-c2ccccc2)cc1)c1ccccc1C(F)(F)F	79%[activator]	47%[activator]
